Bioassay records deposited in PubChem by Fisher Drug Discovery Resource Center.
NPYLR7 ag = mosquito NPYLR7 agonism; activation, % at 10 µM; HEK293T NPYLR7/Galpha15, GCaMP6s calcium fluorescence; actives 0.15% (n = 270,000); in the data active means activation above about 40%;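 further: 0% = vehicle and 100% = reference agonist at the receptor; some compounds past the cut are filed as inactive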
NPYLR7 ag max-min = further read-out of NPYLR7 ag, marked with its call; activation, %; measured here: Max-Min RFU normalised activation; some inactives read as strong as hits;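 span of the calcium signal over five minutes; 0% = vehicle and 100% = native peptide agonist; compound fluorescence can raise it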
Numbers without * were called inactive; & = joins results of further samples. Only part of the results is shown; count on the stated rates, not on these rows.

SMILES | NPYLR7 ag | NPYLR7 ag max-min
O=C(CSc1nnc(-c2ccco2)o1)N1CCOCC1 | -5 | 0
Cc1cc(N=Cc2nc(-c3cccc4ccccc34)oc2O)no1 | 1 | -6
Cc1ccc(CCC(=O)Nc2cccc(CN3CCSCC3)c2)c(C)c1 | -4 | -3
O=C1OC(c2cccc(F)c2)=NC1=Cc1ccc(F)c(F)c1 | 2 | 4
O=C1CCC2(C(=O)OCCCn3c(=O)[nH]c4ccccc43)Sc3ccccc3N12 (stereo not drawn) | 0 | 3
COc1cccc(OC)c1-c1ccc(CN2CCCCC2)cc1 | -4 | -4
OCc1cnn(-c2ccccc2)c1-n1cccc1 | 23 | 6
C=CCNCc1cccn1-c1sc2c(c1C#N)CCCC2 | 0 | -1
N#CCCN(CCc1ccccn1)C(=O)c1ccc(-n2nc(-c3cccc(Cl)c3)cc2N)cc1 | -7 | -11
COc1ccc(OC)c(C2CCCN2C(=O)CN2C(=O)COc3ccc(Cl)cc32)c1 (stereo not drawn) | 1 | 15
Cc1c(CN(C)C(=O)C2CC3(CCNCC3)CN2)[nH]c2ccccc12 (stereo not drawn) | 15 | 6
O=C(NCC1CCCO1)c1ccccc1N1CCC(NC(=O)C2CC2)CC1 (stereo not drawn) | 12 | 10
COc1ccc2c(c1)CCc1c-2noc1-c1ccc(C)c(NC(=O)c2c(-c3ccccc3)noc2C)c1 | 3 | 2
O=C(Nc1cc2c(cc1Cl)OCCO2)c1ccncc1 | 1 | -2
COc1ccc(C(=O)Nc2cc(C(F)(F)F)ccc2N(C)C)cn1 | 13 | 9
Cc1cccc(N2CCN(S(=O)(=O)c3cc(F)cc(F)c3)CC2)c1 | -8 | -11
CC(C)(C)C(=O)OCOP(=O)(COCCn1cnc2c(N)ncnc21)OCOC(=O)C(C)(C)C | -16 | -23
Cc1cc(F)cc(C(=O)NCCNC(=O)Cc2ccc(F)cc2)c1 | 1 | 12
NC(=O)NC(=O)CNc1ccc(OC(F)F)cc1 | 17 | 11
Cc1cc(C)n(CN2CCCC(C)C2)c(=S)c1C(N)=O (stereo not drawn) | 4 | 12
Cc1cc(C(=O)N2CCCC(c3[nH]ncc3-c3ccc(F)cc3)C2)c(=O)[nH]c1C (stereo not drawn) | 14 | 7
c1ccc(C2CCCN(Cc3nc(-c4cnccn4)no3)CC2)cc1 (stereo not drawn) | 4 | 0
O=C(Cn1c(-c2ccco2)nc(-c2ccccc2)c1-c1ccccc1)NN1CCOCC1 | 19 | 8
CCOc1ccc(OCC(=O)OCc2cc(-c3cc4ccccc4o3)on2)cc1 | -2 | -2
Cc1cc(C)n(CC2(CNC(=O)[C@@H]3C[C@@H]4C=C[C@H]3C4)CC2)n1 | -1 | -1
COc1ccc2c(c1)CCCN2C(=O)C1CCN(S(=O)(=O)c2cccc(C(F)(F)F)c2)CC1 | 1 | 4
CS(=O)(=O)NC(=O)c1ccc(S(=O)(=O)C2CCCC2)cc1 | 5 | 4
COc1ccc(S(=O)(=O)N2CCSC2c2cc(OC)ccc2OC)cc1 (stereo not drawn) | 12 | 4
O=C(c1nnc2n1CCN(Cc1ccccc1)C2)N1CCCCC1 | 13 | 6
COCCNC(=O)c1cc2c(=O)n(C)c(=O)n(C)c2n1Cc1ccco1 | 1 | 1
Cc1ccc(NC(=O)CN2CCN(Cc3ccco3)CC2)cc1F | 0 | -4
Cc1ccc(S(=O)(=O)NCC2CCCC2O)c(F)c1 (stereo not drawn) | 6 | 5
O=C(NCCc1ccccn1)c1coc(CN(CCc2c[nH]c3ccccc23)Cc2cccc(Cl)c2Cl)n1 | 22 | 18
O=S(=O)(c1ccc(-c2ccon2)s1)N1CCC2(CCNCC2)C1 | 2 | 4
COCCn1c(SC(C)C(=O)C23CC4CC(CC(C4)C2)C3)nc(C)c1C (stereo not drawn) | -5 | -10
COc1ccc2cc(CNC(=O)CCCn3c(=O)oc4ccccc43)ccc2c1 | 4 | 1
Cc1ccc(NC(=O)CCCc2cccs2)cc1S(=O)(=O)N1CCOCC1 | -2 | -3
Cc1nc(C(=O)NC(C)c2ncn[nH]2)cs1 (stereo not drawn) | 8 | 4
O=[N+]([O-])c1cc(S(=O)(=O)c2ccc(Cl)c([N+](=O)[O-])c2)ccc1Cl | 8 | 7
Cc1ccc(NC(=O)N2CCC3(CC2)NC(=O)c2ccc(Cl)cc2N3)c(C)c1 | -4 | 4
COc1ccc(-n2c(=O)c3ccccc3n(CC(=O)NCc3ccco3)c2=O)cc1 | -5 | 6
CC1(C(=O)NS(=O)(=O)c2ccc(F)cc2F)CCN1C(=O)CCC1CCCC1 (stereo not drawn) | 4 | 6
COc1ccc(N(C(N)=S)C2=NCCCCC2)cc1 | 11 | 7
CC(NCCC1=CCCCC1)C(=O)NC1CCCC1 (stereo not drawn) | 0 | 11
Cc1cn2c3c(=O)[nH]c(=O)n(C)c3nc2n1-c1ccc(C(F)(F)F)cc1 | 0 | 2
COc1ccc(-c2cc(COC(=O)Cc3ccc(Cl)cc3)no2)cc1OC | -1 | -4
CCc1nc(SCC(=O)N(CC)CC)c(C#N)c2c1CCCC2 | -2 | 2
NC(=O)c1cccc(CC2CCN(C(=O)CCN3CCc4ccccc43)C2)c1 (stereo not drawn) | 5 | 6
CC1C(=O)N(c2ccc(Cl)cc2Cl)CCN1Cc1ccccc1F (stereo not drawn) | 0 | 0
COc1ccc(S(=O)(=O)NCCc2ccc(F)cc2)cc1N1CCN(C(=O)c2c(F)cccc2F)CC1 | 36 | 22
CC(=O)Nc1ccc(Cl)c(C(=O)N2CCCCC2C(=O)O)c1 (stereo not drawn) | 22 | 9
COc1ccc(NC(=O)Cn2nc([N+](=O)[O-])cc2C)cc1OC | -1 | -5
O=C(NC1CC2CCC(C1)N2CC1CCCO1)c1cc(C(F)(F)F)cc(C(F)(F)F)c1 (stereo not drawn) | -1 | 2
O=C(O)C1CC2(CCNCC2)CN1Cc1ccccc1Cn1cccn1 (stereo not drawn) | 3 | -6
CCC(C)(NC(=O)Nc1c(F)cccc1F)c1nc(C)cs1 (stereo not drawn) | 4 | 9
CSc1nn(CC(=O)Nc2ccc(Br)cc2)c(N)c1S(=O)(=O)c1ccc(C)cc1 | -14 | -15
O=C(OC1CCN(Cc2ccsc2)CC1)C1CCC1 | 11 | 10
CCOC(=O)CC1C(=O)NCCN1C(=O)CC[C@@H](C)[C@H]1CC[C@H]2[C@@H]3C(=O)C[C@@H]4CC(=O)CC[C@]4(C)[C@H]3CC(=O)[C@]12C (stereo partly drawn) | -6 | -10
Cc1cccc(CN2CCC(Oc3ccc4ncccc4c3)(C(=O)O)CC2)n1 | 4 | 2
O=C(NCCNc1cc(-n2cccn2)ncn1)Nc1cccc(C(F)(F)F)c1 | -7 | -12

Additional compounds follow.
SMILES | NPYLR7 ag | NPYLR7 ag max-min
CCCCc1ccc(C(NCc2cnn(C)c2)c2cccs2)cc1 (stereo not drawn) | -3 | -8
O=C(c1cn(C2CCCCC2)nn1)N1CCC(Cc2ccccc2F)CC1 | 1 | -2
CCC(=O)Nc1ccc(-c2c(F)cccc2OC)c(C)n1 | -2 | -5
c1ccc2c(c1)OCC(Cn1ccnc1-c1cnc(N3CCCC3)nc1)O2 (stereo not drawn) | -1 | -8
Cc1nc(CCNC(=O)c2c3c(nn2C)CCCC3)sc1C | -4 | -3
COc1cccc(Cn2c(=O)c(C(=O)NCc3ccccn3)nn(-c3cc(C)cc(C)c3)c2=O)c1 | 2 | 2
CN1CCOC2CN(CC(=O)NC(c3ccccc3)C3CC3)CC21 (stereo not drawn) | 5 | 4
O=C(CCc1ncc(-c2c(F)cccc2F)o1)N1CCN(S(=O)(=O)c2ccccc2Cl)CC1 | 6 | 2
CCC(C)(O)CNc1cc(C)nc2c(OC(F)(F)F)cccc12 (stereo not drawn) | 3&-1 | 1&-3
CCN(CC)C(=O)Oc1ccc2c(ccn2Cc2cc(C)cc(C)c2)c1NC(=O)COCCOC | -1 | -6
CCc1nc2ccc(C(=O)NCc3cccs3)cn2c1N(CCC(C)C)CCN(C)C | -3 | -7
CC(=NCCCN1CCOCC1)c1c(C(F)(F)F)[nH]n(-c2nc3ccccc3s2)c1=O | 3 | -1
O=C(NC1CC1)C1CCN(C2CCN(Cc3c[nH]c4ccccc34)CC2)CC1 | -2 | -3
CCc1ccc(S(=O)(=O)Nc2nnc(CC(C)C)s2)s1 | 5 | 2
O=C(NCCc1cccnc1)c1cccnc1Oc1cccc([N+](=O)[O-])c1 | -5 | -12
O=C(CSc1ccccc1F)NNC(=O)c1ccc[nH]c1=O | -2 | -8
CCC(C(=O)N1CCN(C(=O)CCCSc2nnc(-c3ccc(Cl)cc3)n2-c2ccccc2)CC1C)c1ccccc1 (stereo not drawn) | 8 | 17
COCCn1c(=O)n(Cc2cccc(F)c2F)c2cc(C(=O)O)ccc21 | 1 | -3
CN(Cc1cc(-c2ccccc2)no1)C(=O)c1cn(CC2CCCO2)nn1 (stereo not drawn) | 6 | 4
O=c1ccc(=O)n(Cc2nc(CCc3ccccc3)nn2-c2ccccn2)[nH]1 | 3 | 11

Reprinted at random: 2 entries already listed
SMILES | NPYLR7 ag | NPYLR7 ag max-min
COCCn1c(=O)n(Cc2cccc(F)c2F)c2cc(C(=O)O)ccc21 | 1 | -3
CCC(C)(O)CNc1cc(C)nc2c(OC(F)(F)F)cccc12 (stereo not drawn) | 3&-1 | 1&-3

New compounds follow
SMILES | NPYLR7 ag | NPYLR7 ag max-min
Cc1ccc(NS(=O)(=O)c2cc(C)c(C(=O)O)s2)cc1 | -2 | -6
CCc1nc2ccc(C(=O)NCCCN(C)C)cn2c1N(C=O)CCC(C)C | -1 | -3
COc1nn(C)cc1-c1nnc(SC(C)C)n1C | 8 | 11
CCCCN(CC(=O)N(CCc1c[nH]c2ccccc12)Cc1ccccc1)C(=O)CSc1ccccc1 | 13 | 4
COc1ccc(CN2CCC(C(=O)NC(c3ccc(OC)cc3)c3cccs3)CC2)cc1 (stereo not drawn) | 10 | 0
Cc1noc(C)c1CNS(=O)(=O)Cc1ccc(Cl)nc1 | 10 | 9
Cc1cc(C(F)(F)F)nn1CC(=O)NCCc1ccccc1 | 0 | 1
COCCNC(=O)C(NC(=O)c1ccccc1C)C1CCN(C(=O)c2ccc(OC)cc2)CC1 (stereo not drawn) | -1 | -1
c1ccc(C2Nc3ccccc3-c3nc4ccccc4n32)cc1 (stereo not drawn) | -9 | -7
CN(C(=O)c1ccc(N2CCCC2)c([N+](=O)[O-])c1)C1CCCCC1 | -1 | -3
COc1ccc(N2CCN(C(=O)C3CC=CCC3C(=O)NCC3CCCCC3)CC2)cc1 (stereo not drawn) | -12 | -17
Cc1cc(C)cc(NC(=O)Cc2csc(NC(=O)c3cccs3)n2)c1 | 12 | 8
CCOc1ccccc1CN(Cc1nn(C)cc1Cl)C1CC1 | -6 | -9
COc1ccc(C2=NN(c3ccc([N+](=O)[O-])cc3)C(c3ccc(F)cc3)C2)cc1 (stereo not drawn) | -6 | -8
CC(=O)c1sc(=Nc2ccc(C)cc2)n(CCCO)c1C | -4 | -8
CCCCCCC(=O)N1CCC2(CC1)SCCN2C(=O)c1cccc(F)c1 | -7 | -3
CCCC(=O)Nc1cc(C(=O)N(C)CC2COc3ccccc3O2)ccc1C (stereo not drawn) | 8 | 7
Cc1cc(C)cc(NC(=O)CSc2nc(=O)n(Cc3cccnc3)c3c2CCC3)c1 | -2 | -3
COC(=O)C12C=CC(=O)C1C1C=CC2C1 (stereo not drawn) | 4 | 3
CN1CCC(NC(=O)CCc2ncc(-c3ccc(F)cc3)o2)CC1 | -1 | -2

13 entries out of the list, ordered by molecular weight, descending.
SMILES | NPYLR7 ag | NPYLR7 ag max-min
CCCCN(CC(=O)N(CCc1c[nH]c2ccccc12)Cc1ccccc1)C(=O)CSc1ccccc1 | 13 | 4
COCCNC(=O)C(NC(=O)c1ccccc1C)C1CCN(C(=O)c2ccc(OC)cc2)CC1 (stereo not drawn) | -1 | -1
CCCCCCC(=O)N1CCC2(CC1)SCCN2C(=O)c1cccc(F)c1 | -7 | -3
COc1ccc(C2=NN(c3ccc([N+](=O)[O-])cc3)C(c3ccc(F)cc3)C2)cc1 (stereo not drawn) | -6 | -8
CCc1nc2ccc(C(=O)NCCCN(C)C)cn2c1N(C=O)CCC(C)C | -1 | -3
CCCC(=O)Nc1cc(C(=O)N(C)CC2COc3ccccc3O2)ccc1C (stereo not drawn) | 8 | 7
Cc1cc(C)cc(NC(=O)Cc2csc(NC(=O)c3cccs3)n2)c1 | 12 | 8
CN(C(=O)c1ccc(N2CCCC2)c([N+](=O)[O-])c1)C1CCCCC1 | -1 | -3
CCOc1ccccc1CN(Cc1nn(C)cc1Cl)C1CC1 | -6 | -9
Cc1cc(C(F)(F)F)nn1CC(=O)NCCc1ccccc1 | 0 | 1
c1ccc(C2Nc3ccccc3-c3nc4ccccc4n32)cc1 (stereo not drawn) | -9 | -7
COc1nn(C)cc1-c1nnc(SC(C)C)n1C | 8 | 11
COC(=O)C12C=CC(=O)C1C1C=CC2C1 (stereo not drawn) | 4 | 3

The listing continues:
SMILES | NPYLR7 ag | NPYLR7 ag max-min
CN(C)CCCN1c2ccccc2CCc2ccc(Cl)cc21 | -3&-8&-2&6&-15 | -4&-7&-3&1&-20
O=S(=O)(c1ccc2c(c1)nc(SCc1cc(F)c(F)c(F)c1F)n2CCCN1CCOCC1)N1CCOCC1 | 1 | 0
O=C(c1nn2c(C(F)(F)F)cc(-c3ccc(Br)cc3)nc2c1Br)N1CCCCC1 | -11 | -18
COc1cccc(CNC(=O)CSc2ccc(-c3ccc(-n4ccnc4)cc3)nn2)c1 | -6 | -12
CCOC(=O)C1(CCc2ccccc2)CCN(Cc2cccnc2)CC1 | 9 | 12
CN1[C@@H](CCC(=O)NCc2cccnc2)CNC(=O)[C@@H]2[C@H]1CCN2Cc1ncc[nH]1 | -8 | -13
Cc1cccc(C(=O)NCCn2c(C)cc3ccccc32)c1 | 1 | 0
CC(C)N(C(=O)CN1CCN(c2ccc([N+](=O)[O-])c3cnccc23)CC1)c1ccccc1 | 1 | 1
Cn1cnc(S(=O)(=O)Nc2cc3c(cc2C(=O)O)OCCO3)c1Cl | 0 | -3
CN(C)Nc1ccc(S(N)(=O)=O)cc1[N+](=O)[O-] | -4 | -5
